TRPC6 inhibitor: inhibitors of mouse TRPC6 channel; HEK293-TRPC6, membrane potential dye, ACh-evoked depolarization; stronger effect = lower value; Q61143; 310,000 compounds, 1.1% hits; B-score at 10 µM;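 active = B-score under library mean minus 3 SD, initial fluorescence not abnormally high, positive integrated signal ratio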;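 also: B-score derived from integrated fluorescence ratio over the kinetic read; more negative B-score means stronger inhibition of depolarization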
Target sequence (Q61143 whole entry, looked up): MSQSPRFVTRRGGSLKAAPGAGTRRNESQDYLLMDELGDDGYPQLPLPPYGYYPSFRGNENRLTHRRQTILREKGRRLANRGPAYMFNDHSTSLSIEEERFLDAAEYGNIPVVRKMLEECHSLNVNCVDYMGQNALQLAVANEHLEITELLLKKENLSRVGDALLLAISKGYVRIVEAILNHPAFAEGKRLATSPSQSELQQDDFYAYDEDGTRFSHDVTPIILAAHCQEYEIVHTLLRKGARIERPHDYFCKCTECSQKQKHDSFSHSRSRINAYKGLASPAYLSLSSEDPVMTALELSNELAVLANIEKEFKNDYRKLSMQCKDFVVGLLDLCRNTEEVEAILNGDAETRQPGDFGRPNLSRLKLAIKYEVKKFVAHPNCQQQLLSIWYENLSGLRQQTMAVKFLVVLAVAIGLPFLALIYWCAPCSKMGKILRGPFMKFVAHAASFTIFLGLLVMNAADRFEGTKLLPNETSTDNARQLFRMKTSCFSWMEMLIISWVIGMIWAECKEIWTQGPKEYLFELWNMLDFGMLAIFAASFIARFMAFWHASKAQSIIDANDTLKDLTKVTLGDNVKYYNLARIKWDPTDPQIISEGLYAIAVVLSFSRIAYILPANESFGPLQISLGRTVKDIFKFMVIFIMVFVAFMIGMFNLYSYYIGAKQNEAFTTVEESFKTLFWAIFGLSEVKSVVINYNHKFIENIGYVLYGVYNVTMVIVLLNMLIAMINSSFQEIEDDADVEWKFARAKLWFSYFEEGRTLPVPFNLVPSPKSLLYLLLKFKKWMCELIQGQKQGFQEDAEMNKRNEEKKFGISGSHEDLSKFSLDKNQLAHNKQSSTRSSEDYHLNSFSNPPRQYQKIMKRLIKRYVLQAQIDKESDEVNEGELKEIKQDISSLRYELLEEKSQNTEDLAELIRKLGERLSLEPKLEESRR
MrgX1 antagonist: antagonists of human MrgX1 receptor; MRGX1-HEK293 calcium flux, Fluo-4, BAM8-22 antagonism; stronger effect = lower value; 310,000 compounds, 1.3% hits; Q96LB2; B-score at 10 µM;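 active = calcium-response B-score plate-corrected more than 3 library SD below zero, starting fluorescence within 5 deviations, no agonist response on first addition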;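 also: peak minus trough fluorescence over baseline after final BAM8-22 challenge near maximal dose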
PolyA inhibitor: blocks polyadenylation in yeast reporter cells; S. cerevisiae SKY197-pL101 polyadenylation reporter, beta-gal luminescence; efflux-impaired pdr1/pdr3 knockout yeast; score 100 = 6 SD above DMSO; calls only at 12 µM; 300,000 compounds, 0.02% hits; AID 1875;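 active = lowest replicate activity score at least 50, where 100 means six control SD above control mean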;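 also: yeast exposed to compound for 9 h at 30 °C; higher score means more reporter readthrough which indicates perturbed polyadenylation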
TRPC4 act: opens the mouse TRPC4 cation channel. Q9QUQ5. HEK293 TRPC4beta/mu-opioid, Fluo4 calcium fluorescence; stronger effect = higher value. B-score at 10 µM. 310,000 compounds, 0.49% hits. AID 2237;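 active = B-score above 5 SD of library B-scores, and initial fluorescence ratio not above library mean plus 5 SD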;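 also: positive B-score marks a calcium rise read as TRPC4 activation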
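Assay system – TRPC4beta and mu-opioid receptor HEK293 stable cells · Measured by – Fluo4 fluorescence, kinetic · Schedule – dye loading 45 min room temperature, 110 s kinetic read · Read-out – B-scored integrated calcium fluorescence ratio · Controls – buffer and maximal DAMGO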
MrgX1 allo act: allosterically activates human MrgX1 receptor signaling; B-score at 10 µM; Q96LB2; MrgX1-HEK293, Fluo-4 calcium flux, FDSS; stronger effect = higher value; 310,000 compounds, 0.63% hits;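 active = plate-corrected calcium response at least 3 library SD above typical, normal starting fluorescence, not activating the receptor alone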;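 also: compound read alongside a low EC10 to EC30 dose of BAM8-22 agonist; peak minus trough fluorescence over baseline measured at the second addition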
TRPC4 potent: TRPC4 (mouse) allosteric potentiation; Q9QUQ5; HEK293 TRPC4beta/mu-opioid, DAMGO EC20, Fluo-4 Ca2+ flux; stronger effect = higher value; B-score at 10 µM; 310,000 compounds, 0.42% hits; AID 2227;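 active = B-score of calcium response area above 5 SD of library B-scores, with initial fluorescence ratio within 5 SD of library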;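 also: B-score of integrated fluorescence ratio over time as area under calcium response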
MrgX1 agonist: human MrgX1 receptor agonism, primary screen | Q96LB2 | MrgX1-HEK293 cells, Fluo-4 calcium fluorescence, agonist mode; stronger effect = higher value | B-score at 10 µM | 310,000 compounds, 0.44% hits;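 active = calcium response B-score plate-corrected fluorescence ratio at least 3 library SD, with starting fluorescence B-score inside 5 SD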
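Assay system: stable human MrgX1 HEK293 cell line. Quantity: 15,000 cells per well. Schedule: cells plated overnight, dye loaded 0.5 h 37 °C, 0.5 h room temperature. Detection: Fluo-4 NW calcium-flux fluorescence, kinetic read. Read-out basis: peak-minus-minimum fluorescence over baseline, converted to B scores. Control set: positive and negative control wells on each plate.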
TRPC4 inh: inhibitors of mouse TRPC4 channel; 300,000 compounds, 0.39% hits; HEK293 TRPC4beta/mu-opioid, DAMGO-evoked Fluo4 calcium flux; stronger effect = lower value; AID 2247; B-score at 10 µM; Q9QUQ5;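 active = B-score over 3 SD under the library average, no early fluorescence shift, positive overall ratio signal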
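Assay system: TRPC4beta/mu-opioid receptor HEK293 cell line; compound dosing: single concentration per test compound; detection: Fluo4 Ca2+ flux fluorescence; evaluation: per-well B score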
AI-2 QS modul: modulators of Vibrio harveyi AI-2 quorum sensing system | Vibrio harveyi JMH597 AI-2 luminescence/OD600 ratio, 9 h; stronger effect = lower value; strain lacks LuxN and CqsS sensors; 0 = neutral-control median | 300,000 compounds, 0.4% hits | activity change, % at 7.5 µM | AID 2094; in the data active = activity change below about -75%, passing the limit was not always enough;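 also: luminescence divided by OD600 gain over 9 h not by final OD600 alone; inactives centre near 13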
TRPC6 activator: mouse TRPC6 channel activation; Q61143; HEK293-TRPC6 membrane potential dye fluorescence; stronger effect = higher value; B-score at 10 µM; 310,000 compounds, 0.13% hits;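 active = B-score of the integrated fluorescence ratio above library mean plus 3 SD, and starting fluorescence ratio within library mean plus 5 SD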;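 also: higher score means more depolarization so channel activation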
An asterisk follows results filed as active; i = inactive; x = no result given; & = joins results of further samples. The list is partial (hit frequency here may not be typical).

Compound,TRPC6 inhibitor,MrgX1 antagonist,PolyA inhibitor,TRPC4 act,MrgX1 allo act,TRPC4 potent,MrgX1 agonist,TRPC4 inh,AI-2 QS modul,TRPC6 activator
CC(C)NC[C@H](O)COc1cccc2ccccc12,i,i,i,i,i,i,i,i,24,i
CSC1=C(C#N)C(c2ccc(C)s2)CC(=O)N1 (stereo unspecified),i,i,i,i,i,i,i,i,5,i
COc1cccc(-c2nc(NC(C)(C)C)c3ccccc3n2)c1O,i,i,i,i,i,i,i,i,37,i
CN(C)CCCOC(=O)c1ccc(Cl)cc1Cl,i,i,i,i,i,27*,i,i,4,i
CCC(=O)O[C@@H]1CC(=O)O[C@H](C)CC=CC=C[C@@H](O)[C@H](C)C[C@H](CC=O)[C@H](O[C@H]2O[C@H](C)[C@@H](O[C@H]3C[C@@](C)(O)[C@@H](OC(=O)CC)[C@H](C)O3)[C@H](N(C)C)[C@H]2O)[C@H]1OC,i,x,i,i,x,i,x,i,-35,i
COc1cc(/C=N/n2nnnc2N)ccc1O,i,i,i,i,i,i,i,i,13,i
CCOC(=O)c1c(C)n(C)c2ccc(O)c(CN3CCCCC3)c12,-8*,i,i,i,i,i,i,i,-4,i
CCOc1ccc(N=C2C(=O)N(CN3CCOCC3)c3ccccc32)cc1,i,i,i,i,i,i,33*,i,39,i
CC(=O)N1CCC2(CC1)C(C#N)=C(N)Oc1n[nH]c(C(F)(F)F)c12,i,i,i,i,i,i,i,i,4,i
Cc1ccc(NC(=O)c2cc(N3CCOCC3)nc3ccccc23)cc1,i,i,i,i,i,i,i,i,12,i
Cc1ccc(C2CC(c3cccs3)n3nc(N)nc3N2)cc1 (stereo unspecified),i,i,i,i,i,i,i,i,11,i
COc1ccc(O[C@H]2C=C[C@@H](c3ccccc3)O[C@@H]2COC(=O)CC/C(C)=N/O[C@H](C)c2cn([C@@H]3COC[C@H]3O)nn2)cc1,i,i,i,i,i,i,i,i,39,i
Nc1ccc2oc(-c3ccccc3Cl)nc2c1,i,i,i,i,i,i,i,i,18,i
O=C(CN1C(=O)c2ccccc2C1=O)NCc1ccncc1,i,i,i,i,i,i,i,i,8,i
Fc1ccc(C(c2ccc(F)cc2)N2CCN(C/C=C/c3ccccc3)CC2)cc1,i,i,i,i,i,i,i,i,13,i
CCCNC(=O)OC[C@H]1O[C@H](CCO/N=C/[C@@H](OC)[C@H](C)/C=C/CC(=O)OC)C=C[C@@H]1Oc1ccc(OC)cc1,i,i,i,i,i,i,i,i,22,i
Cc1cc(C)cc(CC2CC(=O)N(c3cc(C)on3)C2=O)c1 (stereo unspecified),i,i,i,i,i,i,i,i,8,i
COc1ccc2[nH]cc(CCNC(C)=O)c2c1,i,i,i,i,i,i,i,i,14,i
Cc1nn(CC(=O)N2CCOCC2)c(=O)c2ccccc12,i,i,i,i,i,i,i,i,10,i
CN/C(=C\[N+](=O)[O-])NCCSCc1ccc(CN(C)C)o1,x,i,x,x,i,x,i,x,x,x
Cc1cccc(Nc2ccccc2C(=O)O)c1C,i,i,i,i,i,i,i,i,25,i
CCCCCCOc1ccc(N2C(=O)CC(N3CCN(C(=O)c4ccco4)CC3)C2=O)cc1 (stereo unspecified),i,i,i,i,i,i,i,i,3,i
CC1(C)CC(=O)C(C2=NC(C)(C)Cc3ccccc32)=C(O)C1,i,i,i,i,i,i,i,x,10,i
COc1cccc(OC)c1OCCNCC1COc2ccccc2O1 (stereo unspecified),-5.6*,i,i,i,i,i,i,i,11,i
Cc1ccc(C2CC(C(F)(F)F)n3ncc(C(N)=O)c3N2)cc1 (stereo unspecified),i,i,i,i,i,i,i,i,20,i

Record cards (already shown). Values in the order: TRPC6 inhibitor	MrgX1 antagonist	PolyA inhibitor	TRPC4 act	MrgX1 allo act	TRPC4 potent	MrgX1 agonist	TRPC4 inh	AI-2 QS modul	TRPC6 activator
`CCCNC(=O)OC[C@H]1O[C@H](CCO/N=C/[C@@H](OC)[C@H](C)/C=C/CC(=O)OC)C=C[C@@H]1Oc1ccc(OC)cc1` is listed as i	i	i	i	i	i	i	i	22	i
`COc1ccc(O[C@H]2C=C[C@@H](c3ccccc3)O[C@@H]2COC(=O)CC/C(C)=N/O[C@H](C)c2cn([C@@H]3COC[C@H]3O)nn2)cc1` is listed as i	i	i	i	i	i	i	i	39	i

The list goes on:
Compound,TRPC6 inhibitor,MrgX1 antagonist,PolyA inhibitor,TRPC4 act,MrgX1 allo act,TRPC4 potent,MrgX1 agonist,TRPC4 inh,AI-2 QS modul,TRPC6 activator
O=C(O)CSc1ccccc1C(=O)O,i,i,i,i,i,i,i,i,1,i
Cc1cc(O)c(C(C)C)cc1N=Cc1ccccc1O,i,i,i,i,i,i,i,i,-4,i
CNCC(O)C(O)C(O)C(O)CO (stereo unspecified),i,i,i,i,i,i,i,i,-5,i
NCCCS(=O)(=O)O,i,i,i,i,i,i,i,i,11,i
COc1cccc(C2=CC(c3ccccc3)n3nnnc3N2)c1 (stereo unspecified),i,-5.6*,i,i,i,i,i,i,-2,i
C=C(C)CSc1nc(N)c2c3c(sc2n1)CCC3,i,i,i,i,i,i,i,x,15,i
Cn1cc(Cl)nc1C(O)c1ccccc1 (stereo unspecified),i,i,i,i,i,i,i,i,27,i
O=C(O)/C=C/C(=O)N1Cc2cc3ccccc3nc2C1,i,i,i,i,i,i,i,i,6,i
CCCCOc1ccc(OCCCN2CCOCC2)cc1,i,i,i,i,i,i,i,i,32,i
COc1cc(-c2nn3c(-c4ccccn4)nnc3s2)cc(OC)c1OC,i,x,i,i,x,i,x,i,27,i
C[C@H](CCC(=O)NCC(=O)O)[C@H]1CC[C@H]2[C@@H]3[C@H](O)C[C@@H]4C[C@H](O)CC[C@]4(C)[C@H]3C[C@H](O)[C@]12C,i,i,i,i,i,i,i,i,17&-1,i
CCCOc1ccc(N2C(=O)CC(N(Cc3ccc(S(N)(=O)=O)cc3)C(=O)CC)C2=O)cc1 (stereo unspecified),i,i,i,i,i,i,i,i,11,i
CC1(C)SC2C(NC(=O)COc3ccccc3)C(=O)N2C1C(=O)O (stereo unspecified),i,i,i,i,i,i,i,i,30,i
C[C@]12CCC(=O)C=C1CC[C@@H]1[C@@H]2[C@@H](O)C[C@@]2(C)[C@H]1CC[C@]2(O)C(=O)CO,i,i,i,i,i,i,i,i,23,i
O=C(NCCc1ccccc1)/C(=N\O)c1ccccc1,i,i,i,i,i,i,i,i,-79*,i
CO[C@H]1/C=C/O[C@@]2(C)Oc3c(C)c(O)c4c(O)c(c(C=NN5CCN(C)CC5)c(O)c4c3C2=O)NC(=O)/C(C)=C\C=C\[C@H](C)[C@H](O)[C@@H](C)[C@@H](O)[C@@H](C)[C@H](OC(C)=O)[C@@H]1C,x,i,x,x,i,x,i,x,x,x
COc1ccc(-c2onc(C)c2-c2ccccc2)c(O)c1,i,i,i,i,i,i,i,i,22,i
Cc1cc(=O)oc(C)c1C(=O)NCCNC(=O)c1c(C)cc(=O)oc1C,i,i,i,i,i,i,i,i,8,i
C[C@@H]1O[C@@H]1P(=O)(O)O,x,i,x,x,i,x,i,x,x,x
CC1(C)Cc2c(c(N3CCOCC3)nc3sc(C#N)c(N)c23)CS1,i,i,i,i,i,i,i,i,30,i
CN1CCN(C(=O)CSc2nc(-c3cccs3)ccc2C#N)CC1,i,i,i,i,i,i,46*,i,20,i
COc1c(C)c2c(c(O)c1C/C=C(\C)CCC(=O)O)C(=O)OC2,i,i,i,i,i,i,i,i,4,i
CCC(=O)Oc1ccc(/C(CC)=C(\CC)c2ccc(OC(=O)CC)cc2)cc1,i,i,i,i,i,i,i,i,10,i
CC[C@H]1CN2CCc3cc(OC)c(OC)cc3C2C[C@@H]1C[C@H]1NCCc2cc(OC)c(OC)cc21 (stereo partly specified),x,i,x,x,i,x,i,x,x,x
O=C1CCC(=O)N1c1nc2nc(-c3ccccc3)cc(-c3ccccc3)n2n1,i,i,i,i,i,i,i,i,18,i

Looked up above:
COc1cc(-c2nn3c(-c4ccccn4)nnc3s2)cc(OC)c1OC in AI-2 QS modul = 27
O=C(NCCc1ccccc1)/C(=N\O)c1ccccc1 in AI-2 QS modul = -79*
NCCCS(=O)(=O)O in AI-2 QS modul = 11
O=C(O)CSc1ccccc1C(=O)O in AI-2 QS modul = 1

New compounds follow
Compound,TRPC6 inhibitor,MrgX1 antagonist,PolyA inhibitor,TRPC4 act,MrgX1 allo act,TRPC4 potent,MrgX1 agonist,TRPC4 inh,AI-2 QS modul,TRPC6 activator
CO[C@@]1(NC(=O)CSCC#N)C(=O)N2C(C(=O)O)=C(CSc3nnnn3C)CS[C@@H]21,i,i,i,i,i,i,i,i,11,i
C/C(CCN1CCc2nc(-c3ccccc3)c(-c3ccccc3)cc2C1)=N\OC[C@@H](C)[C@H](OCc1ccccc1)C(C)C,i,i,i,i,i,i,i,i,7,i
CCCCCOC(=O)C(C)c1c(C)[nH]c(=S)[nH]c1=O (stereo unspecified),i,i,i,i,i,i,i,i,13,i
O=c1c(F)cn(C2CCCO2)c(=O)n1Cc1ccccc1Cl (stereo unspecified),i,i,i,i,i,i,i,i,35,i
COC(=O)CSc1nc(-c2cccs2)ccc1C#N,i,i,i,i,i,i,i,i,32,i
CCCCCn1c2nc3ccccc3nc2c2c(=O)n(CC(C)C)cnc21,i,i,i,i,i,i,i,i,0,i
CCCCOc1ccc(C(=O)N2CCCC2C(=O)O)cc1 (stereo unspecified),i,i,i,i,i,i,i,i,17,i
CC(NC(=O)OCc1ccccc1)C(=O)OCN1C(=O)c2ccccc2C1=O (stereo unspecified),i,i,i,i,i,i,i,i,4,i
C=CCNc1nc(C)nc(OC)n1,i,i,i,i,i,i,i,i,3,i
CCN(CC)C(=O)CSC1=C(C#N)C(c2ccco2)C(C(=O)OCCOC)=C(C)N1 (stereo unspecified),i,i,i,i,i,i,i,i,6,i
CCSc1nnc(NC(=O)C(C)(C(F)(F)F)C(F)(F)F)s1,i,i,i,i,i,i,i,i,7,i

From PubChem
